Biofilm kill mix: mixtures killing C. albicans biofilm | C. albicans biofilm persisters + clotrimazole, fluorescence viability; primary screen in compound mixtures of four per well | inhibition, % at 7.6 µM | hit rate 0.02% among 120,000 | AID 1242;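 active = inhibition above 30.3% in the primary screen of four-compound pools, then above 30% when the compound was retested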;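 note: compounds exposed to preformed 24 h biofilms for 48 h; the number belongs to the whole pool; some results filed as inactive read as strong as hits; inactives centre near 12; 0% = biofilm with clotrimazole alone and 100% = kill control; retested singly at about 60 µM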
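Test system: C. albicans biofilms. Buffer or medium: RPMI/MOPS medium, pH 7.0. Timing: 48 h compound exposure at 37 °C. Technique: Alamar Blue fluorescence. Evaluation: percent inhibition of biofilm viability.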
Numbers without * were called inactive; & = joins results of further samples.

Start of the listing, in advance:
SMILES	Biofilm kill mix
Cc1nn(-c2ccccc2)cc1/C=N/NC(N)=S	12.3
Cc1nc([N+](=O)[O-])c(Sc2nc3ccccc3[nH]2)n1Cc1ccccc1	14.8
NC(=O)c1cc(C(=O)c2ccccc2Cl)c[nH]1	-9.9
C=CCc1cc(C=O)cc(OCC)c1O	16.8
CC(OC(=O)c1ccccc1Oc1ccccc1)C(=O)NC1CC1 (stereo unspecified)	9.0

This part in full, previewed entries included:
SMILES	Biofilm kill mix
Cc1nn(-c2ccccc2)cc1/C=N/NC(N)=S	12.3
Cc1nc([N+](=O)[O-])c(Sc2nc3ccccc3[nH]2)n1Cc1ccccc1	14.8
NC(=O)c1cc(C(=O)c2ccccc2Cl)c[nH]1	-9.9
C=CCc1cc(C=O)cc(OCC)c1O	16.8
CC(OC(=O)c1ccccc1Oc1ccccc1)C(=O)NC1CC1 (stereo unspecified)	9.0
O=[N+]([O-])c1ccc(/C=N/Nc2nc(N3CCOCC3)nc(N3CCOCC3)n2)cc1	15.5
CC(Sc1nncn1C)C(=O)NCc1ccc2c(c1)OCO2 (stereo unspecified)	4.8
O=C(Cn1c(COc2ccccc2)nc2ccccc21)Nc1cc(Cl)ccc1Cl	11.6
CC1=NN(c2ccccc2)C(=O)C1N=Nc1ccccc1 (stereo unspecified)	40.1
O=C(Nc1ccccc1)c1nn(-c2cccc(C(F)(F)F)c2)ccc1=O	1.6
CC(C)(C)NC(=O)c1ccccc1-c1nc2ccccc2s1	22.0
Cc1cccc(C(=O)NC(=S)Nc2ccccc2C(F)(F)F)c1	24.7
COc1ccc2cc(C(=O)C3CCCN(C(=O)c4cc5nc(C)cc(C)n5n4)C3)ccc2c1 (stereo unspecified)	4.8
COC(=O)c1sc(-c2ccc(C(C)(C)C)cc2)cc1NC(=O)/C=C/C(=O)O	3.1
COc1ccc(CCNC(=O)CS(=O)(=O)c2cn(CC(=O)N3CCOCC3)c3ccccc23)cc1OC	5.8
O[C@@H](CNC[C@H](O)c1ccccc1)c1ccccc1	8.3
CS/C(=C\[N+](=O)[O-])Nc1ccc(OC(F)(F)F)cc1	14.7
Cc1ccccc1OCCOc1ccc([N+](=O)[O-])cc1/C=N/n1cnnc1	4.9
Cc1c(Cl)cccc1NC(=S)N1CCC(N(C)CC2CCCO2)CC1 (stereo unspecified)	14.0
CN(C)N1C(N)=C(C#N)C(c2ccccc2)C2=C1CCCC2=O (stereo unspecified)	-4.2

In the list so far, 2 contain a tert-butyl group.
SMILES	Biofilm kill mix
CC(C)(C)NC(=O)c1ccccc1-c1nc2ccccc2s1	22.0
COC(=O)c1sc(-c2ccc(C(C)(C)C)cc2)cc1NC(=O)/C=C/C(=O)O	3.1

Additional structures:
SMILES	Biofilm kill mix
O=C(O)CCN1CC2([N+](=O)[O-])C=CC(=O)C([N+](=O)[O-])(C1)C2CC(=O)c1ccccc1 (stereo unspecified)	20.2
Cc1ccn(CC(C)C(=O)O)n1 (stereo unspecified)	20.6
O=C(Nc1ccccc1C(=O)NC(Cc1c[nH]c2ccccc12)C(=O)O)c1ccccc1 (stereo unspecified)	-1.3
NC(=O)NCc1ccccc1	17.0
CC(C)(C)c1ccc(-c2nc3n(c(=O)c2C#N)CCS3)cc1	-2.8
CC(C)(C)NC(=O)C(c1ccccn1)N(C(=O)C1CSC(=O)C1)c1cccc(F)c1 (stereo unspecified)	5.4
COc1cnc(-c2ccccn2)[nH]c1=O	21.2
CCCC(=O)Nc1nnc(C2CCCO2)s1 (stereo unspecified)	23.2
Cn1cc2cccc([N+](=O)[O-])c2n1	6.4
CCCNC(=O)c1noc2c1CCc1cc(OC)ccc1-2	11.3
NCCSc1c(-c2ccc(F)cc2)[nH]c2ccccc12	31.0
Cc1cccc(OCCCC(=O)Nc2nccs2)c1C	26.8
CC1Cc2ccccc2N1c1nc(C2CC2)nc2c1nnn2Cc1ccccc1 (stereo unspecified)	7.4
COc1ccccc1/C=C(\NC(=O)c1ccc(OC)c(OC)c1)C(=O)Nc1ccc([N+](=O)[O-])cc1	11.1
COc1cc(C(CCN2CCOCC2)c2c(OC)cc(OC)c3c(C)cc(=O)oc23)cc(OC)c1OC (stereo unspecified)	15.6
CC(C)CNC(=O)NC(=O)COC(=O)C1CSC2(c3ccc(F)cc3)CCC(=O)N12 (stereo unspecified)	1.0
Cc1cccc(OCCC(=O)Nc2nnc(C)s2)c1	14.8
COCCNCCCOc1ccc(C(C)(C)c2ccccc2)cc1	14.4
COc1cc(/C=C(\C#N)c2nc3ccccc3s2)cc([N+](=O)[O-])c1O	21.0
CC(=O)C1C(c2ccc([N+](=O)[O-])cc2)C2C(C)=NN=C2CC1(C)O (stereo unspecified)	13.6
O=C(Nc1ccc(Cl)c(Cl)c1)Nc1ccc([N+](=O)[O-])cn1	16.1
COc1ccccc1-n1c(-c2cc(-c3ccco3)[nH]n2)n[nH]c1=S	20.4
COc1ccccc1NS(=O)(=O)c1cc(NC(=O)c2ccncc2)ccc1N1CCOCC1	-8.3
CCOC(=O)c1c(N)sc2c1CCCC2=O	2.2
O=C1C2C3C=CC(C4CC34)C2C(=O)N1c1nccs1 (stereo unspecified)	5.9
COc1ccccc1N1CCN(C(=O)CCCCCn2c(=O)[nH]c3ccsc3c2=O)CC1	12.5
CCOC(=O)c1cnc(SCC(=O)Nc2ccccc2C(=O)OC)nc1N	8.8
CCN(CC)S(=O)(=O)c1cc(NC(=O)[C@@H](NC(N)=O)C(C)C)ccc1C	19.7
CCCC(=O)N/C(N)=N/c1nc(C)c2cc(C)ccc2n1	19.5
CN(C)/C=C(\C#N)C(=O)N/N=C/c1ccc(F)cc1	14.1
O=C(Nc1cccc(Cl)c1N1CCCCC1)c1ccc(N2CCOCC2)c([N+](=O)[O-])c1	13.8
Nc1ccc(C23CC4CC(CC(C4)C2)C3)cc1	13.0
CC(=O)N/N=C(\C)CC(=O)NC(C)(C)C	11.9
COc1ccccc1CNCc1cc(Br)ccc1OC	9.6
COc1ccc(/C=C2\SC(=S)N(c3cccnc3)C2=O)cc1	17.7
O=C(CCCC(=O)NCCc1ccccc1)NCCc1ccccc1	17.2
O=C(Nc1cc(-c2ccccc2)[nH]n1)c1ccc(Cl)cc1	12.7&8.2
CCOC(=O)c1ccc2c(c1)n(CC)c(/C=C/N(C)c1ccccc1)[n+]2CC	17.8
O=C(c1ccccc1)c1c2c(cc3sc4ccccc4[n+]13)-c1cccc3cccc-2c13	24.7
COP(=O)(OC)c1nc(-c2cccc3ccccc23)oc1NCCc1ccccc1	10.9
Cc1cccc(/C(N)=N/OC(=O)C23CC4CC(CC(C4)C2)C3)c1	19.4
O=C(CN1CCN(c2ncccn2)CC1)N1CCCc2c1c(=O)oc1ccc(O)cc21	8.0
O=C(O)c1ccccc1-c1ccc(/C=C/c2cc(C(F)(F)F)[nH]c(=O)n2)o1	14.2
O=C(NNC(=S)NCCc1ccccc1)c1ccc(Br)s1	11.8
COc1ccc(C(=O)Nc2ccc(Cc3ccncc3)cc2)cc1Br	4.2
CC/C(C)=N/N1C(=O)c2ccccc2NC1(C)CC (stereo unspecified)	1.3
COc1ccc(OC)c(/C=C/C(=O)N(C)CC(=O)Nc2ccc(C)cc2)c1	11.5
COc1ccc(C2=NN(C(=O)c3ccc(Cl)c([N+](=O)[O-])c3)C(c3ccccc3)C2)cc1 (stereo unspecified)	21.0
CN(c1nnc(N)s1)C1CCCCC1	3.7
Cn1c(N)c(Br)c(-c2ccc(F)cc2)c(C#N)c1=O	14.1
CC1CCN(CC(O)COCCOc2ccc(Br)cc2)CC1 (stereo unspecified)	19.8
O=C(CCCCCCCCN1C(=O)c2ccccc2C1=O)N1CCOCC1	6.5
CCOC(=O)C1(Cc2ccccc2)CCN(Cc2cc(OC)c3c(c2)OCO3)CC1	21.0
Cc1csc(NC(=O)c2cc[n+]([O-])cc2)n1	21.3
Cc1cc(C(=O)OCC(=O)Nc2nccs2)c2ccccc2n1	6.1
NC(=O)N1c2ccccc2C=Cc2ccccc21	19.4
Oc1[nH]c2ccccc2c1N=Nc1nncc2ccccc12	21.8
CN1CCN(C(=O)/C=C/c2ccc(Cl)cc2)CC1	11.4
COc1ccc(/C=N/NC(=S)Nc2ccccc2[N+](=O)[O-])cc1O	12.6
CCOC(=O)c1sc(NC(=S)NC(=O)c2ccccc2)c(C(=O)OCC)c1C	7.2
Next structures
SMILES	Biofilm kill mix
Cc1n[nH]c(C)c1S(=O)(=O)N1CCCC(C(=O)NCc2ccccc2Cl)C1 (stereo unspecified)	10.7
CCOc1ccc(C(=O)Nc2ccc(NC(=S)NC(=O)CC)cc2)cc1Cl	19.9
COc1ccc(/C=C/C(=O)NC(=S)Nc2ccc(C(=O)O)cc2)cc1	18.9
O=S(=O)(O)c1ccc(N=Nc2ccccc2)cc1	21.1
Cc1ccc2nc(SCC(=O)Nc3nonc3N)[nH]c2c1	10.9
CCOC(=O)c1ccc(NC(c2ccc(N(C)C)cc2)P(=O)(OC(C)C)OC(C)C)cc1 (stereo unspecified)	15.8
O=[N+]([O-])c1ccccc1Oc1ccc(C(F)(F)F)cn1	20.6
CCc1nc(SCC(=O)Nc2nnc(CC(C)C)s2)n[nH]1	26.6
CC1(C(=O)N/N=C/c2ccccc2)CC1(Br)Br (stereo unspecified)	19.0
CCOc1ncccc1C(=O)Nc1ccc(S(=O)(=O)N2CCCC2)cc1	18.7
O=C1NCCN1Cc1ccc(Cl)cc1	23.8
O=C1C2CC=CCC2C(=O)N1Cc1nnc(-c2ccccc2Br)o1 (stereo unspecified)	13.3
Cc1cc(C)cc(C(=O)N2CCN(c3ccccn3)CC2)c1	22.0
Cc1ccc(S(=O)(=O)Nc2c(C)[nH]c(=O)[nH]c2=O)cc1C	11.0
O=C(NNC1=NC2(CCCC2)Cc2ccccc21)c1cccnc1	1.1
CCOC(=O)c1c(N)ssc1=S	15.4
O=C(Cn1cc(C(F)(F)F)ccc1=O)Nc1ccc(N2CCOCC2)cc1	14.1
CC(C)(C)c1ccc(-c2nnc(SCC(=O)Nc3sc4c(c3C#N)CCCC4)o2)cc1	5.8
COc1cc(NC(=O)C/C(C)=N/NC(=O)C(=O)NCCO)c(OC)cc1Cl	19.3
Cc1ccc(Nc2c(-c3ccc(N4CCOCC4)cc3)nc3cnccn23)cc1	15.9

Seven entries from above in another layout:
canonical_smiles,Biofilm kill mix
Cc1ccc(S(=O)(=O)Nc2c(C)[nH]c(=O)[nH]c2=O)cc1C,11.0
CCOc1ncccc1C(=O)Nc1ccc(S(=O)(=O)N2CCCC2)cc1,18.7
O=[N+]([O-])c1ccccc1Oc1ccc(C(F)(F)F)cn1,20.6
Cc1n[nH]c(C)c1S(=O)(=O)N1CCCC(C(=O)NCc2ccccc2Cl)C1 (stereo unspecified),10.7
O=C(Cn1cc(C(F)(F)F)ccc1=O)Nc1ccc(N2CCOCC2)cc1,14.1
CCOC(=O)c1c(N)ssc1=S,15.4
Cc1ccc2nc(SCC(=O)Nc3nonc3N)[nH]c2c1,10.9

(next part)
SMILES	Biofilm kill mix
Cc1ccc(-n2c(O)c(C=NCc3ccccn3)c3ccccc3c2=O)cc1	22.6
Cc1ccc(C)c(N2CCN(CCCNC(=O)Cn3cccc3C(=O)c3ccccc3C)CC2)c1	18.8
CC1(C)CC2CC(C)(CN2C(=O)C23CCC(C)(C(=O)C2)C3(C)C)C1 (stereo unspecified)	13.8
Cc1cccn2c(CN(C)C3CCCc4ccccc43)c(C(=O)N3CCOCC3)nc12 (stereo unspecified)	30.0
COCCn1c(C)cc(C(=O)CN2CCCCC2)c1C	15.9
O=C(NNC(=O)c1cc2c(s1)CCCC2)c1ccccc1	12.0
C=CCN(c1ccc(C(=O)Nc2ccc(C)cc2)cc1)S(C)(=O)=O	8.6
O=C(Nc1ccc(Nc2ccncc2)cc1)c1ccc([N+](=O)[O-])cc1	16.1
O=C1NC(=O)/C(=C\c2ccccc2OCc2cccc([N+](=O)[O-])c2)N1	9.4
NS(=O)(=O)c1ccc(CNC(=S)Nc2ccc(Cl)c(Cl)c2)cc1	14.4
CC(C)=CCN1CCN(C/C(Cl)=C/c2ccccc2)CC1CCO (stereo unspecified)	17.1
CCOC(=O)c1ccc(N2C(=O)c3n[nH]c(-c4ccco4)c3C2c2ccc([N+](=O)[O-])cc2)cc1 (stereo unspecified)	15.7
CC(=O)NC1=NN(C(C)=O)C(c2ccco2)S1 (stereo unspecified)	3.7
CCOC(=O)/C(C#N)=C\c1ccc(OC)c(OC)c1	12.7
O=C(O)c1cccc2c1C(=O)N(CC1CCCO1)C2 (stereo unspecified)	30.0
COc1cccc(/C=N/Nc2ncc(C(F)(F)F)cc2Cl)c1O	23.6
O=C(c1cc([N+](=O)[O-])[nH]n1)N1CCSCC1	9.7
O=C(CCCCCCN1C(=O)c2ccccc2C1=O)N1CCC(c2ccccc2)C1 (stereo unspecified)	10.6
Cc1cc(C)nc(SCC(=O)Nc2nonc2N)n1	7.7
CC1CCc2c(sc3nc(CN4CCOCC4)nc(Sc4ccccc4)c23)C1 (stereo unspecified)	10.7
COc1ccc(C2(CNC(=O)c3ccc(OCC(C)C)cc3)CCOCC2)cc1	4.6
COc1ccc(Cn2c(=S)[nH]c3cc(OC)c(OC)cc3c2=O)cc1	16.2
COc1cc2c(cc1OC)C(C)N(S(=O)(=O)c1cn(C)c(C)n1)CC2 (stereo unspecified)	10.1
CCCN1C(=O)SC(CC(=O)Nc2cccc3ccccc23)C1=O (stereo unspecified)	16.1
O=C(/C=C/c1ccc(Br)cc1)c1ccco1	18.6
CN(C)c1ccc(C(CNC(=O)c2ccc(F)cc2)c2c[nH]c3ccccc23)cc1 (stereo unspecified)	9.3
CCOc1ccc(NC(=O)CC2C(=O)N(c3ccc(OC)cc3)C(=O)N2CCc2cccs2)cc1 (stereo unspecified)	20.8
C=CCN1C(=O)C(Cc2ccccc2)SC1=Nc1ccc(C(=O)O)cc1 (stereo unspecified)	5.8
S=C(NC1CCCCC1)N(CCc1nc2ccccc2[nH]1)C1CCCC1	14.1
Cn1cc(CN2CCCC(CO)(Cc3cccc(Cl)c3)C2)cn1 (stereo unspecified)	9.3

High-throughput results from PubChem.

Some of the compounds tested, so the mix of outcomes need not match the whole.
